Screens (PubChem)
D2 potentiator: positive allosteric modulators of human D2 dopamine receptor; AID 624464; potentiation, % (no concentration beside the values); 0.23% of 360,000 active; DiscoveRx D2 beta-arrestin cells, luminescence, 90 min; 100% = 57 uM dopamine signal; P14416; active = potentiation of 50% or more; inconclusive = 30% to 50%; inactive = 30% or less;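 further: compound concentration not given in the record; tested on top of an EC20 dose of dopamine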
Target sequence (P14416 whole entry, looked up): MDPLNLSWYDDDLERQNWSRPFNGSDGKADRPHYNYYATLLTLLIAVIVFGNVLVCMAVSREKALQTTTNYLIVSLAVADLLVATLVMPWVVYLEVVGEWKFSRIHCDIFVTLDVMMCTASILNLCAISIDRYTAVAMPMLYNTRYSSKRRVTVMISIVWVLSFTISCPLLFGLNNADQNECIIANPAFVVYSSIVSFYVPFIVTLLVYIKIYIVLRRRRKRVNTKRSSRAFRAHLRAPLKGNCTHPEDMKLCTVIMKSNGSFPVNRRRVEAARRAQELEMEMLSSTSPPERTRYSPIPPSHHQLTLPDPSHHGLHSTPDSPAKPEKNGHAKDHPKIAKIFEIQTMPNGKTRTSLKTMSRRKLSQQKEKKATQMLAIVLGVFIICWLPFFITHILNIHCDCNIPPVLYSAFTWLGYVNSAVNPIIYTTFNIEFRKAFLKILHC
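PathHunter D2 cells, attached overnight at 37 deg C, received compound in DMSO plus dopamine at EC20 (50 nM final) for 90 min at 37 deg C. Beta-arrestin recruitment was read as luminescence after 1 h with detection reagent at ambient temperature.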
Sfp PPTase inh: blocks B. subtilis Sfp PPTase activity; Biochemical Sfp PPTase activity, qHTS; Potency, µM, for inactives: max response, negative = inhibition, most hits filed as inhibitors; 3.5% of 310,000 active; active means well fitted inhibition curve with a large enough effect; inconclusive means small, poorly fitted or top-dose-only effect, or another doubt; inactive means no such curve, though single readings can be large or run the other way;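 further: the enzyme is Sfp with the accession as filed and its product quenches rhodamine fluorescence; potency means the concentration at half of the fitted maximal effect; 0% = enzyme reaction without inhibitor and -100% = no enzyme wells; top concentration of the series not given in the record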
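Fluorescence-quenching assay: 15 nM Sfp-PPTase preincubated 15 min at room temperature with compound, then 5 uM rhodamine-CoA and 12.5 uM BHQ-2-labelled YbbR peptide added. Fluorescence (ex 525/em 598 nm) read at start and after 30 min; difference gives rate.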
D2 ag: activates the human D2 dopamine receptor; P14416; DiscoveRx PathHunter D2 beta-arrestin, luminescence, 90 min; 100% = 57 uM dopamine signal; 0.084% of 360,000 active; activation, % (concentration not given with the values); in the data active = activation above about 40%; inconclusive = about 15% to 40%; inactive = below about 15%; further: compound concentration not given in the record; the text of the record calls up to 30% inactive
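Agonist mode: compounds alone added to overnight-plated D2 PathHunter cells for 90 min at 37 C, with 57 uM final dopamine (EC100) defining full response. Beta-arrestin recruitment detected by chemiluminescent reagent, read after 1 h at ambient temperature.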
CtBP-E1A blk: CtBP/E1A binding inhibition. AlphaScreen GST-E1A/His-CtBP binding, 1536-well; stronger effect = lower value; control for the full effect not named in the record. activity change, % (no concentration beside the values). 0.49% of 340,000 active. AID 651724; in the data active means activity change below about -65%; inconclusive means about -30% to -65%; inactive means above about -30%; further: on the % scale 0 is the no-effect control and ±100 the full control effect; compound concentration not given in the record
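Steps: dispense buffer (Tris pH 8.0, NaCl 300 mM, TCEP 1 mM, BSA, Tween 20); add 5X protein mix (GST-E1A, His-CtBP, 125 nM each); pin 23 nL compound; 2 h at 37 °C, dark; add 5X beads (50 ug/mL); 1 h; read.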
PINK1 expr mod: modulators of PINK1 expression; PINK1 immunofluorescence, high-content cytometry, 24 h; Potency, µM (highest dose often 76.6 µM), for the others: at the top dose activation (PINK1 increase), actives largely listed as activators; 0.2% of 410,000 active; active = well fitted activation curve with a large enough effect; inconclusive = small, poorly fitted or top-dose-only effect; inactive = flat fitted curve, though single readings scatter; cell line not stated here;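 further: potency means the concentration at half of the fitted maximal effect; % of control where 0% means no effect; nearly all actives have a fitted effect of over 65% in size; a mitochondrial uncoupler was the plate control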
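PINK1 protein, normally rapidly degraded, was detected by immunofluorescence after 24 hour compound treatment of a stable cell line. Titration data (5 concentrations) came from laser-scanning cytometry, with CCCP-treated wells as controls.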
Six1-Eya2 blk: Six1/Eya2 interaction inhibition; Q15475+O00167; AlphaScreen GST-Six1/His-Eya2 binding, biochemical; stronger effect = lower value; control for the full effect not named in the record; activity change, % (concentration not given with the values); 0.56% of 360,000 active; in the data active = activity change below about -65%; inconclusive = about -30% to -65%; inactive = above about -30%; further: on the % scale 0 is the no-effect control and ±100 the full control effect
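AlphaScreen with GST-Six1 and His-Eya2 (5X mix: 250 nM and 500 nM), glutathione donor and nickel acceptor beads; buffer 50 mM Tris pH 8.0, 300 mM NaCl, 1 mM TCEP; 1 h at 37 C in the dark.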
TRPV1 potentiator: potentiators of human vanilloid receptor 1 (TRPV1); Q8NER1; TRPV1-expressing cells, Fluo-8 calcium influx, capsaicin EC20 potentiation; host cell line not named in the record; control for the full effect not named in the record; potentiation, % at 8.33 µM; 0.02% of 320,000 active; AID 540277; active means potentiation above 80%; inconclusive means 30% to 80%; inactive means below 30%; further: 0% is about no effect
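Fluo-8 calcium influx in TRPV1-expressing cells, kinetic read (ex 480/em 520 nm). Compound added and read 3 min for agonist activity, followed by capsaicin at EC20 final and 2 min further read for enhancement.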
Numbers without * were called inactive; u = inconclusive; x = no result given; [ ] = remark or other dose.

SMILES	D2 potentiator	Sfp PPTase inh	D2 ag	CtBP-E1A blk	PINK1 expr mod	Six1-Eya2 blk	TRPV1 potentiator
CCOC(=O)c1csc(NC(=O)c2cc(-c3ccccn3)nc3ccccc23)n1	-2	x	8.6	-2	1.0%	0	x
COC(=O)c1ccccc1OCCCOc1ccc(C=O)cc1OC	2	5%	-5.4	0	0.1%	-5	5
CCOC(=O)CC1(NC(=O)c2cc(COc3cncc(Cl)c3)on2)CCCCC1	4	-1%	1.9	9	1.5%	1	0
COc1ccc(OC)c(C2C(C#N)=C(N)Oc3cc(C)n(Cc4ccccn4)c(=O)c32)c1 (stereo unspecified)	-5	9%	-1.5	6	2.8%	-2	-5
O=C(c1ccc(-c2ccccc2)cc1)N1CCN(c2nc3ccccc3o2)CC1	-7	-10%	-6.1	0	0.5%	3	-2
O=C(NCCc1cccs1)c1cccs1	0	21%	0.6	4	-0.7%	3	-22
O=C(Nc1cccc(C(F)(F)F)c1)c1cc(-c2ccco2)on1	-17	0%	-5.1	3	16%	0	-1
C[n+]1cnc(-c2ccccc2)cc1-c1ccccc1	-9	11%	-4.8	0	4.5%	10	6
CCCn1nc(C(=O)NCc2ccccn2)c2ccccc2c1=O	-5	6%	-0.1	-3	-0.7%	5	-10
COc1ccc(NC(=O)COC(=O)c2ccc(Cl)c(S(N)(=O)=O)c2)c([N+](=O)[O-])c1	7	-2%	1.8	-15	-2.7%	11	29
Clc1ccc2[nH]c3c(N4CCC5(CC4)OCCO5)ncnc3c2c1	22	-13%	4.9	-13	-1.0%	-11	-21
CC(=O)c1ccc(NC(=O)C2CCCN(c3ncnc4c3nc3n4CCCCC3)C2)cc1 (stereo unspecified)	-3	10%	3.0	3	0.4%	1	-18
Cc1nc2ccccc2n1CCc1ccccc1	-38	13%	-0.9	6	0.7%	-1	-3
COc1ccccc1C1CCN(Cc2cccc([N+](=O)[O-])c2)CC1	-28	-16%	-1.9	x	0.5%	-19	-31
CCOC(=O)[C@]12CCC=C1N(Cc1ccco1)C(=O)[C@H](CC(=O)NCCCN1CCCC1=O)C2	x	x	x	7	-0.9%	-1	x
O=C(CSc1nc2ccccc2o1)Nc1ccc(N2CCOCC2)cc1	7	u	1.7	-21	3.6%[38.3 µM]	-7	-5
COCc1ccc(CN2CCCC(CO)(Cc3ccccc3C)C2)o1 (stereo unspecified)	-20	17%	-2.5	3	-1.3%	-15	-8
O=[N+]([O-])c1ccc(COc2cccc(CN3CCOCC3)c2)cc1	x	x	2.2	-8	1.8%	-16	x
O=C1NC(=O)/C(=C/c2ccccn2)S1	-6	9%	0.6	-2	-0.3%	-2	1
CN1CCN(C(=S)SCc2nc(N)nc(Nc3ccc(F)cc3)n2)CC1	-1	0%	-1.2	-3	3.4%	-8	11
Cc1cccnc1N1C(=O)c2ccc(C(=O)O)cc2C1=O	-7	7%	-3.6	-2	0.3%	3	29
COc1ccc(-c2nnc(NC(=O)CS(=O)(=O)c3ccc(Cl)cc3)o2)c(OC)c1	1	-10%	-2.5	u	0.4%	-25	9
COc1ccc2nc(SCC(=O)N3CC(=O)Nc4ccccc43)c(C#N)cc2c1	2	6%	-1.4	-5	2.4%	-14	-2
CCN(CC)C(=O)CSc1nc2ccccc2c(=O)n1OC	-20	3%	-2.3	0	-0.8%	-3	3
COCCn1c(SCC(=O)Nc2ccc(F)cc2)nc2c(oc3ccccc32)c1=O	10	1%	1.1	1	10%	5	-8
Going on with the list:
SMILES	D2 potentiator	Sfp PPTase inh	D2 ag	CtBP-E1A blk	PINK1 expr mod	Six1-Eya2 blk	TRPV1 potentiator
Cc1cc(-c2ccccc2)nc2[n+]1CCN2C	-4	15%	0.0	-8	-1.1%[38.3 µM]	-1	-18
Cc1ccc(S(=O)(=O)CCC(=O)OCn2nnc3ccccc3c2=O)cc1	-5	-1%	0.0	1	-0.7%	-8	-1
CCOc1ccc(NC(=O)CSc2nc(=O)n(CCN3CCOCC3)c3c2CCCC3)cc1	-25	x	4.8	10	-0.5%	5	-2
CC1=NN(c2ccccc2)C(=O)/C1=C\c1ccc(Br)s1	-10	-5%	0.8	x	1.8%	0	-2
CCNS(=O)(=O)c1ccc(NC(=O)c2ccccc2SCCOC)cc1	-7	2%	0.4	1	-0.8%	-5	-5
CCOC(=O)c1ccc(NC(=O)c2cccc(S(=O)(=O)N3c4ccccc4CC3C)c2)s1 (stereo unspecified)	1	22%	3.4	-2	8.5%	-6	8
Cc1c(Cl)cnc(NC(=O)COC(=O)c2nn(C)c(=O)c3ccccc23)c1Cl	-5	-7%	-2.7	-12	-0.2%	-2	10
O=c1cc(-c2ccccc2)c2ccc(O)c(CN3CCCCC3)c2o1	-7	21%	-2.9	4	7.7%[38.3 µM]	12	5
O=C(CSc1nnc(-c2cccs2)o1)N1CCCc2ccccc21	-12	-5%	-0.6	0	0.5%	9	-8
CC(=O)[C@H]1CC[C@H]2[C@@H]3CC=C4C[C@@H](O)CC[C@]4(C)[C@H]3CC[C@]12C	0	x	-1.9	4	-0.2%	3	-7
Cc1ccc(CNC(=O)CCS(=O)(=O)c2ccc(C)cc2)cc1	-10	5%	1.0	6	-0.7%	4	-9
S=C1Nc2cc(Cl)ccc2Sc2ccccc21	0	14%	-0.4	0	0.4%	-3	4
COCCN(C(=S)Nc1ccccc1C)C(C)c1cccs1 (stereo unspecified)	-18	0%	-3.6	-6	-0.9%	2	-3
CC(CCc1ccccc1)NC(=O)C(=O)c1c[nH]c2ccccc12 (stereo unspecified)	-7	21%	2.0	-24	8.8%	-1	-11
O=C(COC(=O)CNC(=O)c1ccc2c(c1)OCO2)Nc1ncc(Cl)cc1Cl	-1	3%	0.6	6	-0.5%	3	3
O=C(CSc1ccc(-c2ccccc2)nn1)N1CCOCC1	-14	11%	-2.2	0	-2.7%[38.3 µM]	1	u
CCn1c(SCC(=O)N2c3ccccc3Sc3ccccc32)nc2c1c(=O)n(C)c(=O)n2C	-7	4%	-0.7	-5	-1.3%[38.3 µM]	1	-2
COc1ccc(CNC(=S)Nc2cccc(Cl)c2)cc1	-4	x	2.5	x	2.3%	-3	x
CCOC(=O)C1CCN(C(=O)CS(=O)Cc2nc(-c3ccc(C)cc3)oc2C)CC1 (stereo unspecified)	-13	u	-6.1	-1	-1.4%	2	x
O=C(N1CCOCC1)N(CCN1CCOCC1)Cc1cccc(Cl)c1	-24	5%	-1.9	1	0.4%	3	9
CCCN1C(=O)/C(=C/c2c(NCCCOCC)nc3c(C)cccn3c2=O)SC1=S	-9	-5%	-0.9	-1	16%	4	6
Cc1cccc(Nc2ncnc3nc[nH]c23)c1C	-7	4%	-2.8	4	1.3%	6	1
Cc1ccc(C(=O)N/C(=C/c2ccc(-c3cccc([N+](=O)[O-])c3)o2)C(=O)NC(C)C)cc1	u	8%	5.1	-16	4.9%	-11	u
O=C(Cc1cccs1)Nc1cccc(-c2nc3cc4ccccc4cc3[nH]2)c1	4	29%	9.9	18	-2.8%	5	1
Cc1c(Br)c([N+](=O)[O-])nn1CC(=O)NCc1cccnc1	2	7%	-2.3	16	1.2%[38.3 µM]	4	3
(list continues)
SMILES	D2 potentiator	Sfp PPTase inh	D2 ag	CtBP-E1A blk	PINK1 expr mod	Six1-Eya2 blk	TRPV1 potentiator
CC(C)(C)c1nc2ccccc2c(=O)n1N1C(=O)c2ccccc2C1=O	-18	-2%	-2.2	-4	3.2%	-8	-4
O=C(NCCO)c1cccc(S(=O)(=O)N2CCCCC2)c1	0	11%	-1.0	-22	0.7%[38.3 µM]	-5	9
CCNC(=S)NNC(=O)c1ccoc1C	10	13%	-1.1	-1	-1.9%	9	12
CC(CNC(=O)CCCn1ncn2c(cc3occc32)c1=O)c1ccccc1 (stereo unspecified)	-13	-2%	8.5	-22	1.4%	9	7
CC(Sc1nnc2c(n1)[nH]c1ccccc12)C(=O)N(C)C1CCCCC1 (stereo unspecified)	8	-21%	u	u	7.7%	u	-2
COCCN1CCN(C(=O)C2CCC(=O)N(CCc3ccc(Cl)cc3)C2)CC1 (stereo unspecified)	-9	1%	-4.8	-7	-3.6%	4	1
Cc1cc(CNC(=O)Cn2cc([N+](=O)[O-])cn2)c2ccccc2n1	-2	12%	-0.8	-17	-1.8%	1	-6
O=C(c1ccc(Cl)cc1)c1c[nH]c(C(=O)NNc2ccccc2)c1	-6	25%	-0.2	-16	-0.4%	1	16
O=C(NCc1ccco1)c1ccc(S(=O)(=O)N2CCCCC2)cc1	-6	10%	-6.1	x	0.7%	4	-8
Cc1cc(C)c(C)c(S(=O)(=O)N2CCC(C(=O)NCC(c3ccccc3)N(C)C)CC2)c1C (stereo unspecified)	-4	-1%	-0.8	-8	0.9%	4	u
CC1(C)Oc2ccc(C(=O)N3CCOCC3)cc2N(CC(=O)N2CCOCC2)C1=O	-5	6%	-2.8	5	-1.0%	7	-1

Arranged by length of the SMILES (highest first): part of the list above
SMILES	D2 potentiator	Sfp PPTase inh	D2 ag	CtBP-E1A blk	PINK1 expr mod	Six1-Eya2 blk	TRPV1 potentiator
CC(=O)[C@H]1CC[C@H]2[C@@H]3CC=C4C[C@@H](O)CC[C@]4(C)[C@H]3CC[C@]12C	0	x	-1.9	4	-0.2%	3	-7
Cc1cc(C)c(C)c(S(=O)(=O)N2CCC(C(=O)NCC(c3ccccc3)N(C)C)CC2)c1C (stereo unspecified)	-4	-1%	-0.8	-8	0.9%	4	u
CCn1c(SCC(=O)N2c3ccccc3Sc3ccccc32)nc2c1c(=O)n(C)c(=O)n2C	-7	4%	-0.7	-5	-1.3%[38.3 µM]	1	-2
CC1(C)Oc2ccc(C(=O)N3CCOCC3)cc2N(CC(=O)N2CCOCC2)C1=O	-5	6%	-2.8	5	-1.0%	7	-1
O=C(c1ccc(Cl)cc1)c1c[nH]c(C(=O)NNc2ccccc2)c1	-6	25%	-0.2	-16	-0.4%	1	16
O=[N+]([O-])c1ccc(COc2cccc(CN3CCOCC3)c2)cc1	x	x	2.2	-8	1.8%	-16	x
Cc1c(Br)c([N+](=O)[O-])nn1CC(=O)NCc1cccnc1	2	7%	-2.3	16	1.2%[38.3 µM]	4	3
CC(CCc1ccccc1)NC(=O)C(=O)c1c[nH]c2ccccc12 (stereo unspecified)	-7	21%	2.0	-24	8.8%	-1	-11
O=C(CSc1nc2ccccc2o1)Nc1ccc(N2CCOCC2)cc1	7	u	1.7	-21	3.6%[38.3 µM]	-7	-5
CCN(CC)C(=O)CSc1nc2ccccc2c(=O)n1OC	-20	3%	-2.3	0	-0.8%	-3	3
C[n+]1cnc(-c2ccccc2)cc1-c1ccccc1	-9	11%	-4.8	0	4.5%	10	6
